Screening results from PubChem BioAssay.
EPAC1 ag val – Validation qHTS for agonist of cAMP-regulated guanine nucleotide exchange factor 3 (EPAC1). EPAC1 Rap1b BODIPY-GDP exchange, fluorescence. Potency, µM, inactives show max response, positive = active, usual class: activators. Rap guanine nucleotide exchange factor 3 (Homo sapiens), O95398. AID 1645883, 2021. 1% of 16,000 active; active = well fitted activation curve with a large enough effect; inconclusive = small, poorly fitted or top-dose-only effect; inactive = no such curve, though single readings can be large or run the other way;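 also: nearly all actives have a fitted effect of over 70% in size; series mostly up to about 76 or 150 µM; scaled to a cAMP control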
Target sequence (O95398 whole entry, looked up): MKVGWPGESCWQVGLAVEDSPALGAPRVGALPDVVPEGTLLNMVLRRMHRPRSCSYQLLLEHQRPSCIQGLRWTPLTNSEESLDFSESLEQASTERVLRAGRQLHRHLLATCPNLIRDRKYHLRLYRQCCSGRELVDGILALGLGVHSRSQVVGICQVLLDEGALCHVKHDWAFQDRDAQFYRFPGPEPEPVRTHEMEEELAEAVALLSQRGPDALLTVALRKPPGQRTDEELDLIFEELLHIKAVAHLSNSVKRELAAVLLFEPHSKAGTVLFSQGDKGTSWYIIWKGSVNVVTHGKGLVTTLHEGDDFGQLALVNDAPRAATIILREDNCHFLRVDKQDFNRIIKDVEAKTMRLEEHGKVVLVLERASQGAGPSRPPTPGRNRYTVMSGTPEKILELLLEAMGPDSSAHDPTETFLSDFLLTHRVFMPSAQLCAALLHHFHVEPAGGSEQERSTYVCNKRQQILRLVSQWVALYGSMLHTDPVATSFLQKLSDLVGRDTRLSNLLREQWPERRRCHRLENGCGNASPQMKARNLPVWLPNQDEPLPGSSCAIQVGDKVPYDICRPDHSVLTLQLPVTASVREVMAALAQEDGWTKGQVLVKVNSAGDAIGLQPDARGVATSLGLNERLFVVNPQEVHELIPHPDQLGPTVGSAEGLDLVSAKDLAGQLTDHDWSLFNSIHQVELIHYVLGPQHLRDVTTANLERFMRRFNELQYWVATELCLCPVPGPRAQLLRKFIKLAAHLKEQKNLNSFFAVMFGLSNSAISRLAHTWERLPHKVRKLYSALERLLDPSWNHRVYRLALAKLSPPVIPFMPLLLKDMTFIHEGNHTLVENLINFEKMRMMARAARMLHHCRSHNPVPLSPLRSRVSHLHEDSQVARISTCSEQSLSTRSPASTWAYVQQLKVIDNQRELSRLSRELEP
* marks the source's active call; other numbers are inactive results; ? = inconclusive; & = joins results of further samples; [ ] = remark or other dose. % is scaled to controls: 0 for no effect and ±100 for the full control effect; potency is read from the fitted curve at half-maximal effect. Only part of the results is shown (hit frequency here may not be typical).

EPAC1 ag val | structure
-14% | COCC1CCCN(Cc2ccc3c(c2)CN(C(=O)c2cc(-c4ccccc4)n[nH]2)CCO3)C1 (configuration not stated)
? | NC(=O)Nc1ccc(/C=C2\C=Cc3ccccc32)cc1
24% | O=S1(=O)CCO[C@H]2CCCC[C@@H]2N1Cc1ccccc1Br
-40%[inhibitor] | FC(F)(F)c1ccccc1-c1cc(NCc2cccs2)ncn1
-7% | Cn1cc(-c2nc3cnc(Oc4ccccc4)nc3n(C)c2=O)c2ccccc21
-25% | C[C@H](CCC(=O)O)[C@H]1CC[C@H]2[C@@H]3[C@H](O)C[C@@H]4C[C@H](O)CC[C@]4(C)[C@H]3C[C@H](O)[C@]12C
21% | Cc1cnc(CNc2cc(-c3ccc(N(C)C)cc3)ncn2)cn1
? | CC1(C)S[C@@H]2[C@H](NC(=O)COc3ccccc3)C(=O)N2[C@@H]1C(=O)OCc1cccc2cccnc12
-27% | C=C[C@@](C)(O)CC[C@@H]1[C@@]2(C)CCCC(C)(C)[C@@H]2CC[C@@]1(C)O
-4% | COc1ccc(CCNc2ncnc3sc(C(=O)N4CCCC4)c(C)c23)cc1OC
2%&26%&-16%&-38% | CC1=C(/C=C/C(C)=C/C=C/C(C)=C/C(=O)O)C(C)(C)CCC1
? | CC(C)(C)c1ccc(C(=O)C[N+]2(C)CCCc3ccccc32)cc1 (configuration not stated)
-1% | CN1CCN(c2ncc3ncc(=O)n(-c4ccccc4)c3n2)CC1
-3% | CN(CCOc1ccc(C[C@H](Nc2ccccc2C(=O)c2ccccc2)C(=O)O)cc1)c1ccccn1
11%&-13%&-18%&3% | COc1ccc([C@@H]2Sc3ccccc3N(CCN(C)C)C(=O)[C@@H]2OC(C)=O)cc1
2% | COc1cc(Cl)c(CN2CCOc3ccc(CN4CCCCC4CO)cc3C2)cc1OC (configuration not stated)
-7% | COc1cccc(Nc2ncc3nc(-c4ccccc4)c(=O)n(Cc4cccs4)c3n2)c1
? | Cc1cccc(CNc2nc(-c3cccc(NS(C)(=O)=O)c3)nc3ccccc23)c1
-1% | Cc1c(C(=O)N2CCCC(C)C2)sc2ncnc(NCCN3CCCCC3)c12 (configuration not stated)
? | O=[N+]([O-])c1cccc(/C=C/c2ccccc2)c1
-38%[inhibitor] | CC(=O)OC1CCC23CC1(C)CCC2C(C)(C)CC3OC(C)=O (configuration not stated)
1% | CN[C@@H]1[C@@H](O)[C@@H](O[C@@H]2[C@@H](O)[C@H](OC3OC(CN)=CCC3N)[C@@H](N)C[C@H]2N)OC[C@]1(C)O (some centres not stated)
? | CC1=CC2C(C)(C)CC(=O)C[C@]2(C)CC1COc1ccc2c(c1)CC(=O)C=C2 (some centres not stated)
-21% | CN(C)c1nc(-c2cccc(NS(C)(=O)=O)c2)nc2ccccc12
10% | CCOC(=O)C1CCCCN1Cc1nc(N2CCN(C(C)=O)CC2)c2ccccc2n1 (configuration not stated)
4% | O=C1[C@H](Cc2ccccc2)NCCCC[C@H](c2ccco2)N1Cc1ccccc1
16% | Cc1nc2cc(NC(=O)[C@@H]3C[C@@H](Sc4ccccn4)CN3Cc3ccccc3C)ccc2s1
-122%[inhibitor] | O=C(c1cc(C(F)(F)F)cc(C(F)(F)F)c1)N1CCC[C@@]2(CCN(c3ccccn3)C2)C1
? | O=C(OC1Cc2c(O)cc(O)cc2OC1c1cc(O)c(O)c(O)c1-c1c(C2Oc3cc(O)cc(O)c3CC2O)cc(O)c(O)c1O)c1cc(O)c(O)c(O)c1 (configuration not stated)
-66%[inhibitor] | COC(=O)N1CCC2(CC1)CN(c1ccncc1)C2

Some of the entries so far, with each value named.
> CCOC(=O)C1CCCCN1Cc1nc(N2CCN(C(C)=O)CC2)c2ccccc2n1 (configuration not stated)
  EPAC1 ag val = 10%
> O=C1[C@H](Cc2ccccc2)NCCCC[C@H](c2ccco2)N1Cc1ccccc1
  EPAC1 ag val = 4%
> Cc1nc2cc(NC(=O)[C@@H]3C[C@@H](Sc4ccccn4)CN3Cc3ccccc3C)ccc2s1
  EPAC1 ag val = 16%
> O=C(c1cc(C(F)(F)F)cc(C(F)(F)F)c1)N1CCC[C@@]2(CCN(c3ccccn3)C2)C1
  EPAC1 ag val = -122%[inhibitor]

Next structures
EPAC1 ag val | structure
-1% | Cc1cnc(-n2ncc(C(=O)N(C)CC3COCCO3)c2C2CC2)nc1-c1cccs1 (configuration not stated)
4% | CCC1C(=O)NCCN1Cc1ccc2c(c1)CN(Cc1ccc(OC)c(OC)c1)CCO2 (configuration not stated)
100µM* | COc1ccc(C(=O)N2CCC3(CC2)CN(c2ccncc2)C3)cc1
-21% | Cc1ccc(OCC(O)C(C)NC(C)C)c2c1CCC2 (configuration not stated)
-97%[inhibitor] | CC1(C)CCC[C@@]2(C)C1CC[C@@](C)(O)[C@@H]2CC[C@@](C)(O)C1CO1 (some centres not stated)
-18% | Nc1ccn([C@H]2C[C@H](O)[C@@H](CO)O2)c(=O)n1
-23% | Oc1ccc(OCc2ccccc2)cc1
-43%[inhibitor] | CC(C)=CC1C(CO)C1(C)C (configuration not stated)
7% | COc1cccc(C2(CC(=O)N3CCN(c4ccccc4O)CC3)CC(=O)N(C3CCCC3)C2=O)c1 (configuration not stated)
-74%[inhibitor] | O=C(c1cccc(F)c1)N1CCC2(CCCN(Cc3ccncc3)C2)CC1
1% | CCOC(=O)C1=C(O)C(=O)N(Cc2ccccc2)C1
? | CCc1ccc2c(O)c3c(cc2c1C(=O)OC)C(=O)c1c(O)ccc(O)c1C3=O
1% | Cc1ncc2c(c1O)COP(=O)(O)OC2
-92%[inhibitor] | O=C(Nc1cccc(F)c1)N1CCC2(CC1)CCN(C(=O)c1cc(C(F)(F)F)cc(C(F)(F)F)c1)CC2
-30% | COc1ccc(-c2nc3cnc(OC)nc3n(Cc3cccs3)c2=O)cc1
-15% | CC(C)c1ncc([N+](=O)[O-])n1C
-8% | CC(=O)Nc1ccc(OCC(O)CNC(C)C)cc1 (configuration not stated)
4% | C[C@H](C(=O)O)c1cccc(C(=O)c2ccccc2)c1
26% | Cn1c(=O)c(CCc2ccccc2)nc2cnc(N3CCNCC3)nc21
-4% | c1csc(CNc2cc(-c3ccoc3)ncn2)c1
15% | COc1ccc(C(=O)NCCN2Cc3ccccc3OC(c3ccsc3)C2)c(OC)n1 (configuration not stated)
? | COc1cccc(Nc2ncc3ncc(=O)n(CCC#N)c3n2)c1
4% | O=C1CC(c2ccccc2O)Oc2ccc(O)cc21 (configuration not stated)
-4% | COc1cccc(CN2CCC3(CC2)c2ccccc2[C@@H](NC(=O)c2ccccc2OC)[C@@H]3O)c1
-11%&-18% | CC(=O)NNC(=O)N1Cc2ccccc2Oc2ccc(Cl)cc21
-57%[inhibitor] | O=c1cnc2cnc(Nc3ccccc3)nc2n1C[C@H]1CCCO1
8% | CN(C)c1ncnc2ccc(-c3ccc4c(c3)OCO4)cc12
4%&-61% | CC(=O)O[C@H]1C[C@@H]2CC[C@@H]3[C@H](CC[C@@]4(C)[C@H]3C[C@H]([N+]3(C)CCCCC3)[C@@H]4OC(C)=O)[C@@]2(C)C[C@@H]1[N+]1(C)CCCCC1
-14%&-8% | C[C@H](NC[C@H](O)CP(=O)(O)CC1CCCCC1)c1ccc(Cl)c(Cl)c1
-4% | C[C@H]1O[C@@H](n2cc(F)c(=O)[nH]c2=O)[C@H](O)[C@H]1O

A different layout for 3 compounds above:
SMILES,EPAC1 ag val
O=C(Nc1cccc(F)c1)N1CCC2(CC1)CCN(C(=O)c1cc(C(F)(F)F)cc(C(F)(F)F)c1)CC2,-92%[inhibitor]
COc1ccc(-c2nc3cnc(OC)nc3n(Cc3cccs3)c2=O)cc1,-30%
CC(C)c1ncc([N+](=O)[O-])n1C,-15%

(list continues)
EPAC1 ag val | structure
8% | Cc1c(C(=O)NCc2ccc3c(c2)OCO3)cnn1-c1ncc2c(n1)-c1ccccc1CC2
4% | Nc1ncnc2nc(-c3ccc(N4CCOCC4)nc3)cc(-c3cccc(Br)c3)c12
24% | CSc1ncnc2c1ncn2C1OC(CO)C(O)C1O (configuration not stated)
8% | CSc1nc(N)c2ncn([C@H]3O[C@H](COP(=O)(O)OP(=O)(O)O)[C@@H](O)[C@@H]3O)c2n1
26% | Cn1c(=O)[nH]c(=O)c2[nH]cnc21
-7%&-9% | OC(CN1CCC(Cc2ccc(F)cc2)CC1)c1ccc(Cl)cc1 (configuration not stated)
-3% | Cc1ncc2c(c1CNC(=O)c1ccc3c(c1)OCO3)CCN(C(=O)/C=C/c1ccccc1Cl)C2
? | COc1ccccc1CCn1c(=O)c(-c2cccs2)nc2cncnc21
8% | CN1CCN(c2cc(-c3ccccc3C(F)(F)F)ncn2)CC1
1% | S=C(Nc1ccccc1)Nc1nccs1
-12% | CC(C)=CCOc1cc2oc(=O)ccc2cc1O
18% | O=c1c(CCc2ccccc2)nc2cnc(N3CCNCC3)nc2n1Cc1ccc(F)cc1
-6% | CSc1nc(C(=O)N2CCOc3ccc(CN4CCN(Cc5ccccn5)CC4)cc3C2)cs1
11% | N#Cc1ccc(CN2CC3(CCN(C(=O)c4ccco4)CC3)C2)cc1
? | COC(=O)[C@H]1[C@H]2C[C@@H]3c4[nH]c5cc(OC)ccc5c4CCN3C[C@H]2C[C@@H](OC(=O)/C=C/c2cc(OC)c(OC)c(OC)c2)[C@@H]1OC
-52%[inhibitor] | CCC(C)[C@H]1COCCS(=O)(=O)N1Cc1ccccc1F (some centres not stated)
? | CC(C)CC1C(=O)N2CCCC2C2(O)O[C@@](NC(=O)C3C=C4c5cccc6[nH]c(Br)c(c56)CC4N(C)C3)(C(C)C)C(=O)N12 (some centres not stated)
-1% | N#C[C@H]1C[C@H]2C[C@@H]2N1C(=O)[C@@H](N)C12CC3CC(CC(O)(C3)C1)C2
-8% | CC(=O)/C=C\C1[C@]2(C)CCCC(C)(C)C2CC[C@@]1(C)O (some centres not stated)
? | O=C(Nc1nccs1)[C@@H]1CC=C[C@@H]2CCN(Cc3ccc(Cl)c(Cl)c3)C(=O)[C@@H]21
-41%[inhibitor] | NC(N)=NCC1COc2ccccc2O1 (configuration not stated)
-48%[inhibitor] | Cc1noc(C)c1-c1nccc(N(C)C)n1
23% | CC(=O)N1CCC2(CC1)CCN(c1ccc(-c3ccccc3)cc1)CC2
-45%[inhibitor] | Cc1nc2cnc(N3CCN(C)CC3)nc2n(CCc2ccccc2)c1=O
-39%[inhibitor] | COc1ccc(C(=O)N2CCC[C@@]3(CCN(Cc4ccc(C#N)cc4)C3)C2)cc1
-13%&-26% | CC(C)COC(=O)OCN1C(=O)CN(CCN2CC(=O)N(COC(=O)OCC(C)C)C(=O)C2)CC1=O
12% | CC(=O)Nc1ccccc1-c1nc(CNC(=O)c2cccc(-n3cccn3)c2)c(C)o1
? | O=C1OC2(c3ccc(O)cc3Oc3cc(O)ccc32)c2ccccc21
18% | O=C(c1ccc2c(c1)OCCO2)N1CCCCC1
? | COc1ccccc1CNc1ncncc1-c1ccccc1Cl

For convenience, some entries already given.
EPAC1 ag val | structure
-39%[inhibitor] | COc1ccc(C(=O)N2CCC[C@@]3(CCN(Cc4ccc(C#N)cc4)C3)C2)cc1
-13%&-26% | CC(C)COC(=O)OCN1C(=O)CN(CCN2CC(=O)N(COC(=O)OCC(C)C)C(=O)C2)CC1=O
12% | CC(=O)Nc1ccccc1-c1nc(CNC(=O)c2cccc(-n3cccn3)c2)c(C)o1
? | O=C1OC2(c3ccc(O)cc3Oc3cc(O)ccc32)c2ccccc21
18% | O=C(c1ccc2c(c1)OCCO2)N1CCCCC1
? | COc1ccccc1CNc1ncncc1-c1ccccc1Cl

New compounds follow
EPAC1 ag val | structure
100µM* | CN(C)c1ccc(/C=C/c2c(Cl)cnc3ccccc23)cc1
20% | Cc1cccc(CNc2cc(-c3cccc(C#N)c3)ncn2)c1
5% | CC(C)(C)OC(=O)N(Cc1ccco1)S(=O)(=O)c1ccccc1Br
13%&-3% | CC(=O)[C@@]1(O)CC[C@H]2[C@@H]3CCC4=CC(=O)CC[C@]4(C)[C@H]3CC[C@@]21C
-14% | COCCn1c(=O)c(-c2cc(F)cc(F)c2)nc2cnc(N(C)C)nc21
26% | CN1CCN(c2cc(-c3ccc(N(C)C)cc3)ncn2)CC1
? | Cc1c([N+](=O)[O-])cnc2ccccc12
-2% | Cc1ncc2c(c1CNC(=O)c1cncs1)CCN(C(=O)c1ccsc1)C2
-48%[inhibitor] | COc1ccccc1CNc1ncncc1-c1ccccc1OC
-34%[inhibitor] | O=C(Nc1cccc2c(=O)cc(-c3nn[nH]n3)oc12)c1ccc(OCCCCc2ccccc2)cc1
-4% | CCC1C(=O)NCCN1Cc1ccc2c(c1)CN(Cc1cc(OC)ccc1OC)CCO2 (configuration not stated)
-5%&18%&-1%&-18%&-44% | NC(N)=NC(=O)c1nc(Cl)c(N)nc1N
7% | CC(=O)Oc1ccccc1C(=O)Oc1ccccc1C(=O)O
-36%[inhibitor] | O=C(c1csnn1)N1CCC2(CC1)CCN(c1ncccn1)CC2
-12% | c1cncc(-c2nccc(-n3ccnc3)n2)c1
16% | CCCCCc1ccc(-c2cn(Cc3ccc4ccccc4c3)nn2)cc1
-9% | CC(C)C(NC(=O)c1ccccn1)c1nnc2n1CCN(Cc1ccc3ccccc3c1)CC2 (configuration not stated)
-32%[inhibitor] | C=C1CCC(O)C/C1=C/C=C1\CCC[C@@]2(C)C(C(C)/C=C/C(C)C(C)C)CC[C@@H]12 (some centres not stated)
-14% | C[C@H](/C=C/[C@H](C)C(C)(C)O)[C@H]1CC[C@H]2/C(=C/C=C3C[C@@H](O)C[C@H](O)C3)CCC[C@]12C
